Compound activity: PubChem, Johns Hopkins Ion Channel Center
KCNQ2 inh: KCNQ2 potassium channel inhibitors, primary screen, cell-based, CHO-K1, FluxOR thallium flux, B-score (AID 2156). 20 min; hits give low values; only compounds with negative scores are shown here; some inactives read as strong as hits. 310,000 tested, 1.1% active. O88943. B-score at 10 µM;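 active = fluorescence ratio B-score at most minus 3 library SDs, with starting brightness B-score within 2 library SDs, cut at about -5.5 in these data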
Target sequence (O88943 whole entry, looked up): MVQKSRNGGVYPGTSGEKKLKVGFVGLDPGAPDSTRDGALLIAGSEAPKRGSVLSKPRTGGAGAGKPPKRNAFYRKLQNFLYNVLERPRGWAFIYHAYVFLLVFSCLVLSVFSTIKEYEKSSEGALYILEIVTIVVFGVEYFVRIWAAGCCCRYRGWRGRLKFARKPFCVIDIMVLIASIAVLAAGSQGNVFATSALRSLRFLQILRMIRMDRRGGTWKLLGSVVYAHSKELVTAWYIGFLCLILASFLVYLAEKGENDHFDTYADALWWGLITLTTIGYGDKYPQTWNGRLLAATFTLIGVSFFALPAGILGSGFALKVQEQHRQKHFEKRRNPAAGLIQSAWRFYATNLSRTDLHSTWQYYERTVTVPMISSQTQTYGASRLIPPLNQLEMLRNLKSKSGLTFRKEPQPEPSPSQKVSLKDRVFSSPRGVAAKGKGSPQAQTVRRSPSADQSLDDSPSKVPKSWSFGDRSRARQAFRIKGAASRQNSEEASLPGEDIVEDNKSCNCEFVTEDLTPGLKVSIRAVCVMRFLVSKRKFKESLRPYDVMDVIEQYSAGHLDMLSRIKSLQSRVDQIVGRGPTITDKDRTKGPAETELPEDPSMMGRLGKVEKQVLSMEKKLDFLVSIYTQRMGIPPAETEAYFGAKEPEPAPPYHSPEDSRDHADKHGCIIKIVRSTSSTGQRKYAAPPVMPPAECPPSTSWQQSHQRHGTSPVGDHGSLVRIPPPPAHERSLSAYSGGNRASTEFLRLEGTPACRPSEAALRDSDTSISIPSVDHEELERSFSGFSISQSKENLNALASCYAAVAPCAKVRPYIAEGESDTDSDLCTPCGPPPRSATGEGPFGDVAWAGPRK
KCNQ2 inh baseline: further read-out of KCNQ2 inh, marked with its call; B-score; measured here: initial fluorescence intensity artifact check;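 brightness before thallium and not channel activity; 0 = typical well and far values either way flag optical interference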
An asterisk follows results filed as active; i = inactive. The list is partial; rates above refer to the full screens.

SMILES	KCNQ2 inh	KCNQ2 inh baseline
CSC(=S)N(C)C1CCS(=O)(=O)C1 (stereo not drawn)	i	0.04
COc1ccc(C(CNC(=O)C(C)Oc2ccc(Br)cc2)N2CCOCC2)cc1 (stereo not drawn)	i	-0.71
Cc1cc(Br)ccc1OCCCCNCCO	i	-1
COc1ccc(-c2cc(C(F)(F)F)n3nc(C(=O)NCCCN4CCOCC4)cc3n2)cc1	i	0.51
CCCCNS(=O)(=O)c1ccc2nc(-c3cccs3)cc(C(=O)NCC(OC)OC)c2c1	i	0.68
CCCC(C)C(=O)Nc1ccncc1 (stereo not drawn)	i	2
CN(C)CCNc1nc2c(c(=O)[nH]c(=O)n2C)n1CC(O)COc1ccc(Cl)cc1 (stereo not drawn)	i	0.17
CCN(CC)c1ccc(NC(=O)Nc2ccccc2C(F)(F)F)cc1	i	0.16
O=C(O)CN1CCN(CC(=O)O)CCN(CC(=O)O)CCN(CC(=O)O)CC1	i	0.54
CCOC(=O)C1CCN(S(=O)(=O)c2ccc(C(=O)OC)cc2)CC1	i	0.84
CC(Sc1nc2ccccc2s1)C(=O)NC1CCCc2ccccc21 (stereo not drawn)	i	0.41
Cn1ccc(NC(=O)Nc2cccc([N+](=O)[O-])c2)n1	i	-0.94

Reprinted from the part before: 2 compounds; new compounds follow.
SMILES	KCNQ2 inh	KCNQ2 inh baseline
CC(Sc1nc2ccccc2s1)C(=O)NC1CCCc2ccccc21 (stereo not drawn)	i	0.41
Cn1ccc(NC(=O)Nc2cccc([N+](=O)[O-])c2)n1	i	-0.94
CC(C)Oc1ccc(CC(=O)NNC(=S)Nc2ccc(Br)cc2)cc1	i	0.67
COc1cccc(CC2(CO)CCN(S(=O)(=O)N(C)C)CC2)c1	i	0.55
COc1ccc(-c2csc(N(CC3CCCO3)C(=O)c3cccs3)n2)cc1 (stereo not drawn)	i	-0.34
O=C(NC1CCCCCC1)C1CCN(C(=O)Cc2ccccc2)CC1	i	0.03
COc1ccc(Cl)cc1S(=O)(=O)N(C)CC(=O)NCc1ccccn1	i	-0.11
CCOC(=O)c1nn(-c2ccc(F)cc2)c(=O)c(C#N)c1C	i	2.4
CC1(c2ccccc2Cl)NC(=O)N(CC(=O)Nc2cccnc2Cl)C1=O (stereo not drawn)	i	-0.85
COc1ccc(NC(=O)c2cc(C)n(Cc3cccs3)c2C)cc1	i	2.7
CS(=O)(=O)c1ccc(Cl)c(NC(=O)CN2C(=O)C3CCCCC3C2=O)c1 (stereo not drawn)	i	0.51
O=[N+]([O-])c1cc(S(=O)(=O)N2CCCCC2)ccc1NCCN1CCOCC1	i	-1.4
CCOC(=O)CNC(=O)/C(=C\c1ccc(F)cc1)NC(=O)c1ccccc1	i	0.61
O=C(N[C@@H](Cc1ccccc1)C(=O)OCc1ccccc1)c1nc[nH]c1C(=O)NCc1ccccc1	i	-0.36
CCOC(=O)c1c([N+](=O)[O-])c(C)[nH]c(=O)c1C#N	i	0.13
Cc1cccc(C(=O)Nc2cccc(C(=O)N/N=C/c3ccncc3)c2)c1	i	-0.01
Cc1cc(C)c2c(=O)cc(C(F)(F)F)oc2n1	i	-0.37
O=C(NC1CC2CCCC(C1)N2C(=O)Nc1cccc(F)c1)C1CC1 (stereo not drawn)	i	0.7
C=CCNC(=O)CCCCCNS(=O)(=O)c1ccc(OC)cc1	i	0.01
CC(=O)Nc1ccc(OCC(=O)N(CC(C)C)C2CCS(=O)(=O)C2)cc1 (stereo not drawn)	i	0.87
CCCCOc1cccc(C2/C(=C(/O)c3ccc4c(c3)CC(C)O4)C(=O)C(=O)N2CCN2CCOCC2)c1 (stereo not drawn)	i	-0.04
O=C(NCc1cccs1)C1CCN(S(=O)(=O)c2cccc([N+](=O)[O-])c2)CC1	i	0.18
Cc1cc(C)n(C(=O)CN2C(=O)CCC2=O)n1	i	0.18
COc1ccc(CN(C(=O)/C=C/C(=O)c2ccc(OC)cc2O)C(C(=O)NC2CCCCC2)c2ccncc2)cc1 (stereo not drawn)	i	-0.24
Cn1c(SCC(=O)NCc2ccccc2)ncc(C(=O)Nc2ccccc2)c1=O	i	0.01
CCN(CC(=O)Nc1ccccc1C(F)(F)F)C(=O)C1=COCCO1	i	-1.1
CCCc1c(C)[nH]c2ccccc2c1=O	i	-0.9
Cc1ccc(NC(=O)N2CCCN(C(=O)OC(C)(C)C)CC2)cc1Cl	i	-0.84
COc1ccc(CN=Cc2c(O)[nH]c3ccccc23)cc1	i	3.2
CCn1cc(S(=O)(=O)Nc2ccc(C)c(Cl)c2)cn1	i	0.15
Cc1cc(CNC(=O)C2CCC(=O)N(Cc3ccccc3F)C2)nn1C (stereo not drawn)	i	-0.93
CC(=O)Nc1ccc(Sc2ccccc2C(=O)O)cn1	i	0.5
O=C(COC(=O)CC(c1ccccc1)c1ccccc1)Nc1ccc(F)c(F)c1	-8.1*	0.41*
COc1ccccc1CCN=C(N)NS(=O)(=O)c1cc(F)ccc1F	i	-0.75
N#Cc1cc([N+](=O)[O-])ccc1NCCc1ccccn1	i	-0.06
CSc1ccccc1NC(=O)CN(C)Cc1cc(=O)n2ccsc2n1	i	-0.91
Cc1ccc(OCC(=O)NC(C)c2ccc(Cl)c(Cl)c2)c([N+](=O)[O-])n1 (stereo not drawn)	i	1.3
Cc1cc(NC(=O)c2ccccc2[N+](=O)[O-])ccc1Br	i	1.9
COc1cc(OC)cc(C(=O)Nn2c(C)nc3ccccc3c2=O)c1	i	-0.66
CCOc1ccc(CN(C)C(=O)c2ccc(NC(=O)CC3SC(N4CCCC4)=NC3=O)cc2)cc1 (stereo not drawn)	i	3.3
Cc1nnc(SCc2ccc(F)cc2Cl)s1	i	-0.21
CCc1ccc(CN(Cc2cccnc2)C(=O)/C=C/c2ccc(OC)cc2)cc1	i	3.6
CCn1cc(CN(C)S(=O)(=O)c2cccc([N+](=O)[O-])c2)cn1	i	1.1
CC(C)Sc1nnc(NC(=O)c2ccco2)s1	i	0.53
Cc1cccnc1NCC(O)COc1ccccc1 (stereo not drawn)	i	0.73
O=C1CSC(c2cccc(Cl)c2Cl)N1c1ccccn1 (stereo not drawn)	i	-0.94
COc1ccccc1C(=O)NNC(=S)NC(=O)c1cccs1	i	0.82
CC[N+]1(CC)CC2=Cc3c(ccc4ccccc34)C(C)C2C1 (stereo not drawn)	i	-0.6
O=C(NC1CCCC1)C(c1ccc(F)cc1)N(Cc1ccc(F)cc1)C(=O)c1ccn[nH]1 (stereo not drawn)	i	-0.09
O=C(OCC(=O)N1c2ccccc2Sc2ccccc21)C1CC(=O)N(Cc2ccco2)C1 (stereo not drawn)	i	-0.64

Single records (already shown). Order of screens: KCNQ2 inh | KCNQ2 inh baseline
Shown for `CC[N+]1(CC)CC2=Cc3c(ccc4ccccc34)C(C)C2C1` (stereo not drawn) → i | -0.6
Shown for `CC(C)Sc1nnc(NC(=O)c2ccco2)s1` → i | 0.53

Later entries
SMILES	KCNQ2 inh	KCNQ2 inh baseline
C=CCNC(=S)N/N=C/c1ccc(-c2ccc(OC)cc2)o1	i	0.88
CC(C)COC(=O)NCCOC(=O)Nc1cccc(Cl)c1	i	1
O=C(NCc1nc2ccccc2[nH]1)C1=C[C@H](c2ccc3c(c2)OCO3)C[C@H](OCc2ccc(CO)cc2)O1	i	-1.6
COc1cc(OC)c(NC(=O)c2csc(C)c2)cc1Cl	i	-2
COc1ccc(C=O)cc1CN1CCCN(Cc2ccc(Cl)cc2)S1(=O)=O	i	0.38
COc1ccccc1NC(=O)CCc1nc(-c2ccccc2F)no1	i	-0.01
COc1ccc(-c2csc3nc(C)nc(N4CCN(c5ccc(C(C)=O)cc5)CC4)c23)cc1OC	i	0.13
N#CC1=C(Nc2ccc(Br)cc2)CCC1	i	-0.1
CCN(CC)C(=O)C1CC(c2ccc(OC)cc2)=NO1 (stereo not drawn)	i	0.55
CCN(CC)c1nc(-c2ccccc2)nc2ccccc12	i	1.1
CC(=O)Nc1cccc(NC(=O)c2ccc(COc3ccccc3)cc2)c1	i	-1.6
CCNC(=O)Cn1cc(C#N)c2ccccc21	i	-1.2
CCN(CC)S(=O)(=O)c1cccc(NC(=O)CCNC(=O)c2ccc([N+](=O)[O-])cc2)c1	i	0.01
CN1CCN(c2ccncc2S(=O)(=O)N2CCCCC2)CC1	i	0.68
Cc1ccc(S(=O)(=O)Nc2cc3c4c(c2)C(C)C(=O)N4CCC3)cc1 (stereo not drawn)	i	0.44
C=CCN=C1NN=C(c2ccc3c(c2)OCCO3)CS1	i	-0.47
O=C1NC(=O)/C(=C/c2ccccc2Oc2ccc(Cl)cc2)S1	i	-1.8
O=C(N/N=C/c1cccc(OCc2ccccc2)c1)c1ccc(Br)cc1	i	3.1
FC(F)(F)c1nnc2c(Sc3ccc(Cl)cc3)nc3ccccc3n12	i	0.75
O=S(=O)(c1ccc(Cl)cc1)N1CCc2ccccc21	i	2
CCC(C)[C@H](NC(=O)NCCCn1ccnc1)C(=O)OC (stereo partly drawn)	i	-0.04
N#Cc1nc(-c2cccc(Cl)c2)oc1NCc1cccnc1	i	2.7
COc1cc(OC)c2c(C)cc(=O)oc2c1C(CCN1CCN(c2ccccc2)CC1)c1ccc2c(c1)OCO2 (stereo not drawn)	i	1.4
COc1ccc(C(=O)NC(=S)Nc2ccc(Cc3ccncc3)cc2)cc1	i	1.9

Reprinted at random: four records from the list
SMILES	KCNQ2 inh	KCNQ2 inh baseline
COc1ccc(C(=O)NC(=S)Nc2ccc(Cc3ccncc3)cc2)cc1	i	1.9
N#Cc1nc(-c2cccc(Cl)c2)oc1NCc1cccnc1	i	2.7
Cc1ccc(S(=O)(=O)Nc2cc3c4c(c2)C(C)C(=O)N4CCC3)cc1 (stereo not drawn)	i	0.44
CN1CCN(c2ccncc2S(=O)(=O)N2CCCCC2)CC1	i	0.68

Other entries:
SMILES	KCNQ2 inh	KCNQ2 inh baseline
O=C(C1=NN[C@@H]2C(=O)N(Cc3ccccc3)C(=O)[C@H]12)c1ccc(F)cc1	i	-1.3
COc1ccc(C(=O)N/C(=C\c2cn(C)c3ccccc23)C(=O)NCCCN2CCOCC2)cc1	i	0.22
Cc1ccccc1CNC(=O)CCC(=O)N1CCOc2ccccc21	i	-0.32
O=C(NCCCN1CCOCC1)c1ccc([N+](=O)[O-])cc1[N+](=O)[O-]	i	-1.8
CC1CC(C)CN(CCCNC(=O)C2CCN(c3ncnc4c3sc3cccc(F)c34)CC2)C1 (stereo not drawn)	i	0.48
CCc1noc(C)c1C(=O)Nc1cccc(S(=O)(=O)N2CCCCCC2)c1	i	0.22
O=C(OCc1ccccc1)c1ccc2c(c1)-c1ccccc1C2=O	i	-1.8
COc1ccc(S(=O)(=O)N(C)CC(=O)Nc2ccccc2C(F)(F)F)cc1Cl	i	-0.08
c1cc2c3c(cccc3c1)C(N1CCCCC1)=N2	i	0.28
Cc1cccc(C(CC(=O)O)n2cccc2)c1 (stereo not drawn)	i	-1
O=C(Nc1cccc(-c2cnc3ccccc3n2)c1)c1ccccc1	i	-0.31
C=CCn1c(C)cc(-c2csc(N)n2)c1C	i	-1.6
COc1ccc(N=C(C)c2sc3ccccc3c2O)cc1	i	-0.08
CC1Cc2ccccc2N1C(=O)c1cnsn1 (stereo not drawn)	i	0.6
Brc1ccc(-c2noc(CCc3ccccc3)n2)cc1	i	2.1
CC(C)C[C@H](NC(=O)NC(C)C)C(=O)O	i	-0.26
O=C(NCc1ccco1)/C(=C\C=C\c1ccccc1)NC(=O)c1ccccc1Br	i	0.04
COC(=O)C1C(=O)C2=C(CC1C)Nc1ccccc1NC2c1ccc(C)s1 (stereo not drawn)	i	-0.91
CCC(=O)Nc1cccc(-c2cnc3ccccc3n2)c1	i	-0.44
O=C(CN1CCC(n2nnc3cc(C(F)(F)F)ccc32)CC1)NCc1cccs1	i	0.01
CC1C/C(=C/c2ccccn2)C(=O)/C(=C/c2ccccn2)C1 (stereo not drawn)	i	0.15
O=C1c2ccccc2NC(c2ccc(-c3ccc(Br)cc3)o2)N1O (stereo not drawn)	i	1.6
COc1ccc(CCNC(=O)C2CCN(S(=O)(=O)c3cc(OC)ccc3OC)CC2)cc1	i	-0.1
Cc1cc2nc(-c3cccnc3SCC(=O)NCc3ccco3)[nH]c2cc1C	i	-0.74

Reprinted from the results shown (3 entries):
SMILES	KCNQ2 inh	KCNQ2 inh baseline
O=C1c2ccccc2NC(c2ccc(-c3ccc(Br)cc3)o2)N1O (stereo not drawn)	i	1.6
COc1ccc(CCNC(=O)C2CCN(S(=O)(=O)c3cc(OC)ccc3OC)CC2)cc1	i	-0.1
Cc1cc2nc(-c3cccnc3SCC(=O)NCc3ccco3)[nH]c2cc1C	i	-0.74

New compounds follow.
SMILES	KCNQ2 inh	KCNQ2 inh baseline
Fc1ccccc1-c1nc2ccccc2[nH]1	i	1.5
CCOc1ccc(Nc2cc(C)nc3nc(C)nn23)cc1	i	1.4
N#Cc1c(Cl)nsc1NCCN1CCOCC1	i	0.24
COc1cccc(-c2cc3nc4c(c(N5CCC6(CC5)OCCO6)n3n2)CCCC4)c1	-6*	1*
Cc1ccc(OCCC(=O)OCC(=O)Nc2ccc(C)cc2Cl)cc1	i	-0.77
COCCCNC(=O)CN1C(=O)CSc2ccc(S(=O)(=O)N3CCOCC3)cc21	i	0.89
CCC(C(=O)OC)n1cnc2c(cnn2-c2ccc(Cl)cc2)c1=O (stereo not drawn)	i	-1.5
COc1ccc(-c2csc3ncn(CC(=O)N4CCOCC4)c(=O)c23)cc1	i	0.87
O=C(O)CC/C(=N/NC(=O)CNC(=O)Cc1ccccc1)c1ccccc1	i	1.3
Cc1ccc(OC(=O)COc2ccccc2)c(-n2nc3ccccc3n2)c1	i	0.27
O=C(CSc1nnnn1C1CCCCC1)Nc1cccc(NC(=O)c2ccco2)c1	i	-0.28
CC(C)Nc1nnc(SCC(=O)c2c[nH]c3ccccc23)s1	i	0.01
COc1cc(OC)c(OC)cc1CN(C)CCc1ccccn1	i	-0.16
